VDR inh: vitamin D3 receptor (human) inhibition | P11473 | VDR-SRC2-3 peptide fluorescence polarization, 2 h | Potency, µM, without a hit: max response, negative = inhibition, most hits filed as inhibitors | 0.93% of 400,000 active; active = well fitted inhibition curve with a large enough effect; inconclusive = small, poorly fitted or top-dose-only effect, or another doubt; inactive = no such curve, though single readings can be large or run the other way; also: series mostly up to about 120 µM
Target sequence (P11473 whole entry, looked up): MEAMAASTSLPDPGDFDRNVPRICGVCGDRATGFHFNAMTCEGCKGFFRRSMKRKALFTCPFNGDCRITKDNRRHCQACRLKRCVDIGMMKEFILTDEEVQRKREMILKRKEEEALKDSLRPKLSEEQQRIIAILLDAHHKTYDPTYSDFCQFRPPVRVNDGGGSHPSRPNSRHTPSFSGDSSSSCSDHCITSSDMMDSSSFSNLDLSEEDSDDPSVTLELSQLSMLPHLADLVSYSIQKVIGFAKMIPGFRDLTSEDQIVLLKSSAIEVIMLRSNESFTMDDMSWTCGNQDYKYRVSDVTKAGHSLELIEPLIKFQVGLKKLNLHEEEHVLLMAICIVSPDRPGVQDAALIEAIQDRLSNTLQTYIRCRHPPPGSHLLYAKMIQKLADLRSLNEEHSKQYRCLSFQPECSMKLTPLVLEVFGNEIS
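After 23 nl compound addition and a short centrifugation, plates sat for 2 hours at ambient temperature; polarization of fluorescence then indicated loss of VDR binding to peptide SRC2-3.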
Active calls of the source: *; ? = inconclusive; & = joins results of further samples; [ ] = dose if it differs, or a comment. % is scaled to controls: 0 for no effect and ±100 for the full control effect; potency is read from the fitted curve at half-maximal effect. An excerpt. The share of hits here may be higher or lower than overall.

SMILES	VDR inh
Cn1c(-c2cccc([N+](=O)[O-])c2)cnc1NCc1ccc(C#N)cc1	-13%
Cc1cc2oc(=O)cc(CN3CCN(Cc4ccccc4)CC3)c2cc1O	-7%
Cc1ccc(-n2c(=O)c3ccc(C(=O)NCc4ccccc4Cl)cc3n(Cc3cccc(F)c3)c2=O)cc1	-2%
N#CCCn1cc(/C=N/O)c(-c2ccc(Cl)cc2)n1	11%
COc1ccccc1NC(=O)c1ccc(CS(=O)(=O)c2ccc(C)cc2)cc1	29%
CN1CCCN(C(=O)c2ccc(Cl)cc2)CC1	-18%
Cc1ccc(C(=O)Nc2c(C)cc(C)c3cccnc23)cc1	11%
COC(=O)c1oc2c(c1C)C1(CCC2)SCCS1	2%
O=C(CSc1nc2ccccc2c(=O)n1CCCN1CCOCC1)Nc1ccccc1OC(F)F	-11%
CN1CCCC(OC(=O)c2ccc(Cl)cc2)C1 (stereo unspecified)	-24%
CC(c1ccon1)N(C)C(=O)c1ccc2nc(Cc3cccc(Cl)c3)oc2c1 (stereo unspecified)	25%
CCn1c(=N)n(CC(=O)C(C)(C)C)c2ccccc21	10%
CC(C)(C)NC(=O)N1CCCN(c2ccc(C(F)(F)F)cn2)CC1	10%
Cc1ccc2cc(C(c3nnnn3Cc3ccccc3)N3CCc4ccccc43)c(=O)[nH]c2c1C (stereo unspecified)	53%[activator]
Cc1cccnc1NC(=O)c1cccc(NC(=O)CC2SC(N3CCCCC3)=NC2=O)c1 (stereo unspecified)	-9%
COc1ccc([C@H]2CC(=O)C=C(c3cccc(CO)c3)C2)cc1OC	8%
Cc1c(C(=O)Nc2ccc(F)cc2)oc2ccc(S(=O)(=O)N3CCCC3)cc12	-5%
CN1/C(=C\C(=O)c2cccs2)Sc2ccccc21	-4%
COc1cc(/C=N/NC(=O)CCc2c(C)n[nH]c2C)ccc1O	-9%
Cn1cnc2c1c(=O)n(CC(O)CO)c(=O)n2C (stereo unspecified)	-15%
O=C1COc2ccc(-c3csc(NCCc4ccccc4)n3)cc2N1	-14%
COc1cccc(/C=C2\Oc3cc(OC(=O)N4CCOCC4)ccc3C2=O)c1	-10%
CCCC(=O)Nc1ccc(C(=O)N/N=C2\CC(=O)CC(C)(C)C2)cc1	3%
O=C(c1cc([N+](=O)[O-])ccc1Cl)N1CCN(c2ccccc2)CC1	-3%
O=C(Cn1c(=O)n(Cc2ccc3c(c2)OCO3)c(=O)c2ccccc21)N1CCCc2ccccc21	5%
Cc1ccccc1-c1nnc(SCC(=O)Nc2cccnc2Cl)o1	5%
CC(C)CCNC(=O)CN1N=C(c2ccc(Cl)cc2)CCC1=O	1%&14%
C(=N\Nc1ccccn1)/c1ccc(N2CCOCC2)cc1	-24%
CCC(=O)NCCn1ccc2ccccc21	0%
CCC(CC)C(=O)c1c[nH]c(C(=O)NCc2ccc(F)cc2)c1	9%
COc1ccc(CNc2cc(-c3cccc(NS(C)(=O)=O)c3)ncn2)c(OC)c1	-5%
CC(=O)Nc1ccc(/C=N/N2C(=O)NC(C)(c3ccc(OC(F)F)cc3)C2=O)cc1 (stereo unspecified)	-12%
COCc1cc(S(=O)c2ccc(Cl)cc2)nc(C)n1 (stereo unspecified)	50µM*
Cn1c2c(c(=O)n(C)c1=O)C(c1cc(Br)ccc1F)CC(=O)N2 (stereo unspecified)	-6%
C=CCNC(=O)COc1ccc(S(=O)(=O)N2CCCC2)cc1	-6%
COc1ccccc1/C=C/CN1CCCC(CCC(=O)NCc2ccc(F)c(F)c2)C1 (stereo unspecified)	-5%
COc1ccc(C)cc1N(C)C(=O)CCc1nc(-c2ccccc2F)no1	-11%
CCOC(=O)C1(Cc2cccc(Cl)c2)CCCN(C(=O)C2CC2)C1 (stereo unspecified)	-3%
COc1cc(OC)cc(C(=O)NCC(=O)N2CC=C(c3ccccc3)CC2)c1	-11%
COc1ccc(OCCCC(=O)Nc2cccc(SC)c2)cc1	-9%
O=C(CC1C(=O)NCCN1Cc1ccc(F)cc1)NC1CCCCCCC1 (stereo unspecified)	-14%
CCc1cc2c(SCC(=O)N(C)C3CCS(=O)(=O)C3)ncnc2s1 (stereo unspecified)	2%
COc1ccc([C@H]2[C@H](C(=O)C(C)(C)C)N3N=Cc4ccccc4C3[C@]23N=C(c2ccccc2)OC3=O)cc1OC (stereo partly specified)	16%
O=C(NC(=S)Nc1ncccn1)c1ccccc1Cl	-1%
CCN(CC)c1ccc(NC(=O)COc2ccccc2C#N)cc1S(=O)(=O)Nc1ccccc1OC	79µM*
CC(=O)Nc1ccc(NC(=O)CNS(=O)(=O)c2ccc(C)cc2)cc1	-8%
C[n+]1ccc(C(=O)N/N=C/c2ccco2)cc1	-20%
COCCNC(=O)C(c1ccc(C)o1)N(Cc1ccc(F)cc1)C(=O)Cn1nnc2ccccc21 (stereo unspecified)	-5%
CC(C)CC(=O)NNC(=S)Nc1ccc(S(N)(=O)=O)cc1	-9%
O=C(COC(=O)C1(c2cccc(F)c2)CCCC1)NCc1ccc2c(c1)OCO2	-11%

(list continues)
SMILES	VDR inh
O=C(c1nc2ccccc2s1)N1CCN(c2ccccn2)CC1	-13%
O=C(Oc1ccc(OC(=O)N2CCCCC2)cc1)c1ccccc1	9%
COc1ccc(N2CCN(C(=O)c3cc(-c4cccs4)nc4ccccc34)CC2)cc1	-3%
CC(Cc1cccs1)NC(=O)c1cccc(Cl)c1 (stereo unspecified)	-7%
Cc1ccc2sc(N(Cc3cccnc3)C(=O)CCS(=O)(=O)c3ccccc3)nc2c1C	2%
COc1ccc(Cl)cc1N(CC(=O)N1CCCCC1)S(C)(=O)=O	6%
COc1cccc(C2/C(=C(/O)c3ccc4c(c3)CC(C)O4)C(=O)C(=O)N2CC2CCCO2)c1 (stereo unspecified)	-20%
CCN(CC)c1ccc(/C=C(/C#N)c2nc3ccccc3[nH]2)c(OC(C)C)c1	?
Cc1ccc(-c2cc(-c3nnc(SCC(=O)N(C)CCC#N)n3N)c3ccccc3n2)cc1	-2%
CC(=O)c1ccc(N(C(=O)c2csnn2)C(C(=O)NC2CCCC2)c2ccccc2)cc1 (stereo unspecified)	2%
CSCC[C@H](NS(=O)(=O)c1ccc(C)cc1)C(=O)N1CCC(C(=O)N[C@@H](C)C(=O)O)CC1	-7%
CCOC(=O)C(C)Nc1ncnc2onc(C)c12 (stereo unspecified)	3%
CC(=O)NN1C(=O)/C(=C2/Sc3ccc(Cl)cc3N2C)SC1=S	-15%
Cc1ccc(NCc2nnc(SCC(N)=O)o2)c(C)c1	3%
CC(C)(C)NC(=O)Cn1c(SCC(=O)NCc2cccs2)nc2ccccc21	2%
CC(C)(C)NC(=O)CSc1nc(-c2ccc(F)cc2)cc(C(F)(F)F)n1	-22%
CCS(=O)(=O)Nc1cccc(C2=NN(C(C)=O)C(c3cccs3)C2)c1 (stereo unspecified)	4%
COc1cc(S(=O)(=O)N2CCCCC2)ccc1NC(=O)c1ccncc1	9%
COc1cc(NC(=O)CN2c3cccc4cccc(c34)S2(=O)=O)cc(OC)c1OC	-12%
O=C(/C=C1\NC2(CCCC2)Cc2ccccc21)C(=O)N/N=C/c1ccc(O)c(O)c1	-1%
CCOC(=O)c1cc(C#N)c(C)nc1N(CC)CC	4%
COc1cc(C(=O)OCCN2CCCCC2)ccc1O	13%
COc1ccc(C(C(=O)NC(C)(C)C)N(C(=O)Cn2nnc3ccccc32)c2cccc(C(C)=O)c2)cc1O (stereo unspecified)	-8%
CCn1cc(CN2CCC(n3nccc3NC(=O)Cc3ccccc3)CC2)c(C)n1	-2%
O=C(Nc1ccc(Br)cc1)C1CCN(C(=O)c2ccco2)CC1	-15%

Some of these compounds in order of number of heavy atoms, lowest first.
SMILES	VDR inh
CCOC(=O)C(C)Nc1ncnc2onc(C)c12 (stereo unspecified)	3%
CCOC(=O)c1cc(C#N)c(C)nc1N(CC)CC	4%
Cc1ccc(NCc2nnc(SCC(N)=O)o2)c(C)c1	3%
CC(=O)NN1C(=O)/C(=C2/Sc3ccc(Cl)cc3N2C)SC1=S	-15%
O=C(c1nc2ccccc2s1)N1CCN(c2ccccn2)CC1	-13%
O=C(Oc1ccc(OC(=O)N2CCCCC2)cc1)c1ccccc1	9%
CCS(=O)(=O)Nc1cccc(C2=NN(C(C)=O)C(c3cccs3)C2)c1 (stereo unspecified)	4%
COc1cc(S(=O)(=O)N2CCCCC2)ccc1NC(=O)c1ccncc1	9%
CC(C)(C)NC(=O)Cn1c(SCC(=O)NCc2cccs2)nc2ccccc21	2%
COc1cc(NC(=O)CN2c3cccc4cccc(c34)S2(=O)=O)cc(OC)c1OC	-12%
COc1ccc(N2CCN(C(=O)c3cc(-c4cccs4)nc4ccccc34)CC2)cc1	-3%
Cc1ccc2sc(N(Cc3cccnc3)C(=O)CCS(=O)(=O)c3ccccc3)nc2c1C	2%
COc1cccc(C2/C(=C(/O)c3ccc4c(c3)CC(C)O4)C(=O)C(=O)N2CC2CCCO2)c1 (stereo unspecified)	-20%
COc1ccc(C(C(=O)NC(C)(C)C)N(C(=O)Cn2nnc3ccccc32)c2cccc(C(C)=O)c2)cc1O (stereo unspecified)	-8%

Further structures
SMILES	VDR inh
Cc1ccc(N2CC(NC(=O)/C=C\c3ccc4c(c3)OCO4)CC2=O)cc1 (stereo unspecified)	13%
O=C(Oc1ccccc1)N1CCC2(CC1)CN(c1ncccn1)C2	-11%
CCOc1ccc2nc(NC(=O)CSc3nnnn3C3CCCCC3)sc2c1	-1%
CN(C)C(=O)c1cc(C(=O)c2ccc(F)cc2C(F)(F)F)c[nH]1	-4%
CN(C)CCCN(C(=O)c1cc2cc([N+](=O)[O-])ccc2s1)c1nc2cc3c(cc2s1)OCCO3	58%[activator]
CC(=O)Nc1ccc(S(=O)(=O)O)c(OC(C)=O)c1	-13%
Cc1cc(C)c(S(=O)(=O)N2CCC(C(N)=O)CC2)cc1C	10%
Cc1cccc(NS(=O)(=O)c2ccc3oc(=O)ccc3c2)c1C	-5%
COc1cccc(-c2csc(N3CCN(C(=O)Nc4ccc(Cl)cc4)CC3)n2)c1	-9%
Cn1c(SCC(=O)NCC2CCCO2)ncc(C(=O)Nc2ccc(Cl)cc2)c1=O (stereo unspecified)	20%
CCOC(=O)N1CCN(Cc2ccccc2F)CC1	0%
Cc1ccccc1-n1nc(C)c2c(C(=O)NN)cc(-c3ccncc3)nc21	5%
O=C1c2ccc(Oc3cccc([N+](=O)[O-])c3)cc2C(=O)N1c1ccccn1	?
CCOC(=O)C1(CC2CCCCO2)CCN(C(=O)Nc2ccc(C(=O)OC)cc2)CC1 (stereo unspecified)	7%
Nn1c(Cc2cccc3ccccc23)nnc1SCc1c(Cl)cccc1Cl	-18%
COc1ccc(C(=O)NC2=NCCS2)cc1	17%
CCN1C(=O)N/C(=C/c2cc(C)n(Cc3ccccc3)c2C)C1=O	-4%
CCCn1c(SCC(=O)N2CCN(c3ccccc3)CC2)nc2ccccc2c1=O	-12%
OCCCCNCc1cc(Br)ccc1OCc1ccccc1	-11%
COc1ccccc1NC(=O)COC(=O)c1ccccc1SCC(=O)N1CCCC1	-20%
COc1ccc(Cc2nc3ccc(S(N)(=O)=O)cc3[nH]2)cc1OC	14%
Cc1c(C)c2ccc(OCc3ccc(C(=O)O)o3)c(C)c2oc1=O	10%
COc1cc(OC)c(NC(=O)Nc2sc3nc4n(c(=O)c3c2C)CCC(C)CC4)cc1Cl (stereo unspecified)	-14%
Cc1cccc(NC(=O)COC(=O)c2ccccc2SCC(=O)N2CCCC2)c1	-9%
COc1ccc(OC)c(-c2nc(CN3CCCCC3c3cccnc3)c(C)o2)c1 (stereo unspecified)	8%
O=C(CC1C(=O)NCCN1Cc1ccccc1C(F)(F)F)NC1CCCC1 (stereo unspecified)	-14%
O=C(O)c1cc(NS(=O)(=O)c2ccc(NCc3ccccc3)c([N+](=O)[O-])c2)cc(C(=O)O)c1	-11%
COc1ccc(NC(=O)c2sc3nc(-c4cccnc4)ccc3c2N)cc1	1%
O=C(c1cc(Cl)nc2ccccc12)N1CCN(S(=O)(=O)c2cccc(C(F)(F)F)c2)CC1	-1%
CCC(=O)NC1(C(F)(F)F)C(=O)Nc2c1c(=O)[nH]c(=O)n2Cc1ccco1 (stereo unspecified)	8%
Cn1c(=O)[nH]c(=O)c2c1nc(NCc1ccccc1)n2CCCc1ccccc1	1%
CC(=O)n1nc(-c2cccnc2)nc1NCc1cccs1	-7%
N#CC1=C(N)Oc2n[nH]c(-c3cccs3)c2C1c1ccsc1 (stereo unspecified)	8%
Cc1ccccc1NC(=S)NC(=O)C1CCCCC1	3%
COc1ccc2nc3cc([N+](=O)[O-])ccc3c(NNc3ccc([N+](=O)[O-])cc3)c2c1	-20%
COc1ccccc1CCNC(=O)Cn1ccc2cc(S(=O)(=O)N3CCC(C)CC3)ccc21	14%
O=C(C1CCN(S(=O)(=O)N2CCCC2)CC1)N1CCCCC1	-12%
C/C(=N\NC(=O)C1COc2ccccc2O1)c1ccc(Cl)s1 (stereo unspecified)	-7%
O=C(OC(C(=O)NCc1ccc(F)cc1)c1ccccc1)c1ccco1 (stereo unspecified)	-1%
COc1ccccc1C1CC(c2ccc(NS(C)(=O)=O)cc2)=NN1C(=O)c1ccccc1 (stereo unspecified)	0%

Screens from PubChem.
